Compound activity deposited in PubChem BioAssay by National Center for Advancing Translational Sciences (NCATS).
StopGo reporter = High Throughput Screening for Foot and Mouth Disease Virus Antivirals | Potency, µM (titrated, usually from 57.9 µM), for inactives: at the top dose signal change, negative = less light | human cells with a luciferase reporter of 2A StopGo recoding; control for the full effect not named in the record | 410,000 tested, 1.2% active; active = well fitted falling curve with a large enough effect; inconclusive = small, poorly fitted or top-dose-only effect; inactive = no such curve, though single readings can be large or run the other way; tested in HEK293T cells; note: % is set by controls: 0 for no effect and ±100 for the full control effect; nearly all actives have a fitted effect of over 45% in size; luciferase light after 4 h
LASV entry inh = qHTS for Inhibitors of binding or entry into cells for Lassa Virus. Lassa virus pseudotype entry inhibition, cell reporter; control for the full effect not named in the record. Potency, µM (series often up to 37.9 µM), for the others: at the top dose activity change, negative = inhibition, usual class: inhibitors. 300,000 tested, 1.2% active. AID 540256, 2011; active means well fitted inhibition curve with a large enough effect; inconclusive means small, poorly fitted or top-dose-only effect, or effect the other way; inactive means flat fitted curve, though single readings scatter; tested in HEK293 cells; note: % is set by controls: 0 for no effect and ±100 for the full control effect; nearly all actives have a fitted effect of over 50% in size; luciferase read-out
NS1 inh = qHTS Assay for Inhibitors of Influenza NS1 Protein Function | S. cerevisiae slowed by influenza A NS1, growth recovery by OD600 | Potency, µM (titrated, usually from 46.1 µM), inactives show at the highest dose activity, positive = more growth | 270,000 tested, 0.4% active | AID 2326, 2010; note: actives are rising curves; nearly all actives have a fitted effect of over 50% in size
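Recovery from NS1-induced slow growth read by OD600 in budding yeast switched to galactose assay medium (pH 6.0, -URA) at 1:100 dilution. Compound 23 nl per well; the matching strain lacking NS1 serves as control.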
SARS PLpro yeast = qHTS of Yeast-based Assay for SARS-CoV PLP. AID 485353, 2010. 330,000 tested, 0.19% active. S. cerevisiae expressing SARS-CoV PLpro, growth rescue; control for the full effect not named in the record. Potency, µM (doses to about 32.9 µM), inactives show at the highest dose activity, positive = growth rescue; note: 0% is about no effect; nearly all actives have a fitted effect of over 55% in size; growth read by luminescence after 48 h
RE007 growth inh = qHTS Assay for Inhibitors of the HIV-1 protein Vpr; S. pombe RE007 Vpr strain, BacTiter-Glo ATP luminescence, 24 h; control for the full effect not named in the record; Potency, µM (titrated, usually from 92.2 µM), without a hit: at the highest dose activity change, negative = less growth; 360,000 tested, 0.21% active; AID 651644, 2012; active = well fitted falling curve with a large enough effect; inconclusive = small, poorly fitted or top-dose-only effect; inactive = no such curve, though single readings can be large or run the other way;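 note: % is set by controls: 0 for no effect and ±100 for the full control effect; nearly all actives have a fitted effect of over 50% in size; the assay follows cell death caused by Vpr and the record does not say whether a fall means rescue or toxicity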
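Fission yeast strain RE007, carrying one chromosomally integrated HIV-1 vpr copy, was seeded at OD 0.01 in PMG+AL medium with 23 nL pinned compound. After 24 h at 30 °C and 99% humidity, viability was read by BacTiter-Glo luminescence.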
Cruzain Triton = qHTS Assay for Promiscuous and Specific Inhibitors of Cruzain (with detergent); purified cruzain, Z-FR-AMC fluorescence, 0.01% Triton; AID 1478, 2009; Cruzipain (Trypanosoma cruzi), P25779; 200,000 tested, 0.43% active; Potency, µM, inactives show max response, negative = inhibition, most hits filed as inhibitors; active = well fitted curve in the direction sought with a large enough effect; inconclusive = small, poorly fitted or top-dose-only effect, or another doubt; inactive = no such curve, though single readings can be large; an effect the other way counts as inactive or inconclusive;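 note: plate controls were neutral wells for no effect and buffer without enzyme for full effect; nearly all actives have a fitted effect of over 40% in size; top concentration of the series not given in the record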
Target sequence (P25779 123-467 limits assumed): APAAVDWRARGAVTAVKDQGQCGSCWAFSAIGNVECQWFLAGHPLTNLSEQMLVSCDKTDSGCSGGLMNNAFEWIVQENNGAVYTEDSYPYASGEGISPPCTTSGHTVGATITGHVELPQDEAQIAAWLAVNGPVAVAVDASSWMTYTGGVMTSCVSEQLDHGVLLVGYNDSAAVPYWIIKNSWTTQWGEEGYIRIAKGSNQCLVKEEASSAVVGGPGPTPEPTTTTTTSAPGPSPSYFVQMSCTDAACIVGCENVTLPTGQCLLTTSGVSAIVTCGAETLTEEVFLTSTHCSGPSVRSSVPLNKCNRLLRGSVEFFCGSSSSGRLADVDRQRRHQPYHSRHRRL
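Sodium acetate buffer (100 mM, pH 5.5) containing 5 mM DTT and 0.01% Triton X-100 hosted 1.5 nM cruzain and test compound for 15 min at room temperature. Cleavage of 2 uM Z-FR-AMC was then tracked by fluorescence.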
Cruzain noTriton = qHTS Assay for Promiscuous and Specific Inhibitors of Cruzain (without detergent) | Cruzipain (Trypanosoma cruzi), P25779 | purified cruzain, Z-FR-AMC fluorescence, no detergent | Potency, µM, for inactives: max response, negative = inhibition, usual class: inhibitors | 200,000 tested, 2.3% active | AID 1476, 2009; active = well fitted curve in the direction sought with a large enough effect; inconclusive = small, poorly fitted or top-dose-only effect, or another doubt; inactive = no such curve, though single readings can be large; an effect the other way counts as inactive or inconclusive;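 note: plate controls were enzyme without inhibitor for no effect and buffer without enzyme for full effect; nearly all actives have a fitted effect of over 40% in size; top concentration of the series not given in the record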
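Detergent-free condition (0.00005% Triton X-100) in acetate buffer pH 5.5 with DTT. 1.5 nM enzyme and compound were pre-mixed 15 min, then 2 uM Z-FR-AMC substrate added; reaction progress from fluorescence change between first and third reads (60 s).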
MARV entry inh = qHTS for inhibitors of binding or entry into cells for Marburg Virus | Marburg virus pseudotyped entry inhibition, cell reporter; control for the full effect not named in the record; about a third of the inactives were read at about 46 µM | Potency, µM (top dose mostly 37.8 µM), for inactives: at the highest dose activity change, negative = inhibition, actives largely listed as inhibitors | 300,000 tested, 1.8% active | AID 540276, 2011; active = well fitted inhibition curve with a large enough effect; inconclusive = small, poorly fitted or top-dose-only effect, or effect the other way; inactive = flat fitted curve, though single readings scatter; tested in HEK293 cells; about a fifth of its hits are not listed in these tables; note: % is set by controls: 0 for no effect and ±100 for the full control effect; luciferase read-out
Starred values were filed as active, the others as inactive; ? = inconclusive; nt = not tested or not shown; & = joins results of further samples; [ ] = another dose, or the depositor's remark. Unless noted, calls come from the whole dose curve; as a rule, active means well fitted rising curve with a large enough effect; inconclusive means small, poorly fitted or top-dose-only effect; inactive means no such curve, though single readings can be large or run the other way. Potency is the fitted concentration of half-maximal effect.

SMILES	StopGo reporter	LASV entry inh	NS1 inh	SARS PLpro yeast	RE007 growth inh	Cruzain Triton	Cruzain noTriton	MARV entry inh
Cc1cc(=O)oc2cc(OC(=O)c3cncc(Br)c3)ccc12	-1%	14%	nt	0%	-20%	nt	nt	7%[46.1 µM]
Cc1ccc(-c2c(C(=O)N3CCN(c4cccc(C)c4C)CC3)oc(=O)c3ccccc23)cc1	-26%	?	nt	nt	nt	-4.5%	?	?
CCCCn1nc2cc(C(=O)NC[C@@H]3CCCO3)ccc2c1OCC	-9%	nt	-10%	-7%	-2%	-4.0%	6%	nt
Cc1cccc(OCCCC(=O)Nc2ccc(S(=O)(=O)Nc3onc(C)c3C)cc2)c1C	-3%	-1%	-38%	-3%	-6%	-14%	?	2%&21%
O=c1cc(C(F)(F)F)[nH]c(=S)n1-c1ccccc1	0%	-3%	3%	0%	3%	nt	nt	21%
COc1ccccc1N1CCN(C2CCN(S(=O)(=O)c3ccc(NC(C)=O)cc3)CC2)CC1	-11%	?	9%	0%	20%	nt	nt	?
CN(C)/C=C(\C#N)C(=O)Nc1ccc(O)cc1F	26%	18%	1%	-1%	-10%	nt	nt	28%[46.1 µM]
C=CCNC(=S)N1CCC(C(=O)c2ccc(Cl)cc2)CC1	?	nt	-34%	4%	1%	nt	nt	nt
Cc1cccc(NC(=O)/C(=C\c2ccc([N+](=O)[O-])o2)NC(=O)c2ccc(Cl)cc2)c1	-28%	-2%	16%	-5%	-2%	-2.8%	-20%	-3%
Cc1ccc(/C=N/NC(=O)c2cc3c(ccc4ccccc43)o2)o1	4%	-23%[46.1 µM]	-26%	-14%	-11%	nt	nt	-16%[46.1 µM]
Cc1ccc(NC(=O)CCCC(=O)O)c(Br)c1	-11%	-4%	3%	-5%	-3%	2.7%	6%	?
CCN(Cc1ccccc1)Cc1c(O)ccc2c(=O)c(-c3ccccc3Cl)coc12	-7%	-6%[46.1 µM]	nt	nt	nt	-5.2%	-10%	6%[46.1 µM]
Cc1cc(C)n2nc(CC(=O)NC3CCCCCC3)nc2n1	-10%	-11%[14.3 µM]	-2%	2%	-8%	-8.5%	-25%	-10%&-10%
C/C(=N/NC(=O)CC(=O)N/N=C(\C)c1ccc([N+](=O)[O-])cc1)c1ccc([N+](=O)[O-])cc1	-26%	3%[46.1 µM]	-5%	-2%	-10%	nt	nt	?
COc1cccc(CNC(=O)c2ccccc2N)c1	-2%	18%	-3%	-2%	10%	7.6%	15%	13%
O=C(CN1CCN(C(=O)c2ccco2)CC1)Nc1ccc(F)cc1F	22%	?	10%	2%	-2%	nt	nt	?
CN1CCN(CCCNC(=O)c2ccc(NC(=O)C3=CSCCO3)cc2)CC1	8%	nt	-9%	-1%	3%	nt	nt	nt
Cc1cc(C)n2ncc(S(=O)(=O)c3ccccc3)c2n1	0%	18%[46.1 µM]	-2%	1%	5%	nt	nt	-8%[46.1 µM]
Cc1ccccc1CN1CCc2c(OCC(=O)N3CCCc4ccccc43)cccc2C1=O	40µM*	?	5%	8%	-2%	-4.2%	5%	?
COc1ccc(-n2c(N)c(C(=O)Nc3c(C)n(C)n(-c4ccccc4)c3=O)c3nc4ccccc4nc32)cc1	-18%	-7%	7%	1%	16%	nt	nt	-7%[46.1 µM]
CCOc1ncccc1C(=O)OC(C)C(=O)NC(=O)NC1CCCCC1 (stereo not drawn)	-18%	2%[46.1 µM]	nt	-1%	23%	nt	nt	?
CCN1C2=C(C(=O)CCC2)C(c2ccc(O)c(Br)c2)C2=C1CCCC2=O	23%	?	12%	-3%	-6%	-3.9%	-13%	-14%
O=C(Nc1ccccc1C(F)(F)F)N1CCC(n2c(=O)[nH]c3ccccc32)CC1	-24%	-17%	0%	-1%	-7%	0.4%	25%	-20%
CCOc1ccccc1NC(=O)C(OC(=O)c1ccccc1O)c1ccccc1 (stereo not drawn)	3%	-16%	5%	12%	10%	-4.5%	-19%	?
Cc1cc(Nc2ccc(Cl)cc2)n2cnnc2n1	-4%	?	nt	nt	nt	-0.4%	-3%	0%[46.1 µM]
Next records.
SMILES	StopGo reporter	LASV entry inh	NS1 inh	SARS PLpro yeast	RE007 growth inh	Cruzain Triton	Cruzain noTriton	MARV entry inh
CC(C)[C@@H]1CC[C@@H](C)c2c(-c3ccccc3)n[nH]c21	-16%	-15%	-75%	?	?	-8.0%	-6%	-21%
O=C(NCC(c1ccco1)N1CCOCC1)c1ccc(Cl)cc1 (stereo not drawn)	1%	4%	nt	0%	-2%	nt	nt	14%
O=C(CCN1CCCCCC1)c1ccccc1	2%	10%	9%	5%	-13%	?	?	-21%
CCOP(=O)(NC12CC3CC(CC(C3)C1)C2)NC12CC3CC(CC(C3)C1)C2	8%	?	6%	0%	3%	nt	nt	-8%[46.1 µM]
COc1ccc(C)cc1NC(=O)C1COc2ccccc2C1 (stereo not drawn)	-28%	1%[46.1 µM]	nt	nt	nt	-7.3%	-2%	nt
O=C1CC(/C=C/c2ccccn2)=Nc2ccccc2N1	?	?	nt	-1%	-4%	nt	nt	-1%[46.1 µM]
O=C(O)CSc1cc(C(=O)c2ccccc2O)cn2c(=O)c3c4c(sc3nc12)CCCC4	22%	?	-35%	1%	1%	nt	nt	-23%[46.1 µM]
COc1ccccc1CNC(=O)Cn1cc2c(n1)-c1c(oc(C(=O)N3CCOCC3)c1C)CC2	?	-9%[46.1 µM]	nt	nt	nt	-0.3%	10%	nt
CCCOC(=O)c1ccc(NC(=O)CCOc2ccccc2)cc1	6%	-16%	-66%	-34%	5%	-8.3%	-4%	-20%
Cc1cc(C)n(CC(=O)N2CCc3ccccc32)c(=O)c1C#N	-5%	5%[46.1 µM]	4%	-1%	-17%	nt	nt	12%[46.1 µM]
CC1Cc2ccccc2N1C(=O)CSc1nc(N)cc(=O)[nH]1 (stereo not drawn)	nt	nt	10%	0%	nt	8.0%	-10%	-4%
C/C(CC(=O)N1CCN(C=O)CC1)=N\NC(=O)c1cc2ccccc2cc1O	-11%	-17%	23%	14µM*	-5%	-5.0%	-5%	?
CCc1ccc(NC(=S)N(Cc2cccc(Br)c2)CC2CCC(C(=O)O)CC2)cc1 (stereo not drawn)	17%	-24%	nt	-11%	-8%	nt	nt	-4%
CCN(Cc1ccncc1)C(=O)c1ccccc1NS(=O)(=O)c1ccc(F)cc1	16%	-2%[46.1 µM]	nt	0%	3%	nt	nt	11%[46.1 µM]
Cc1ccc(/C=C2\NC(=S)NC2=O)cc1[N+](=O)[O-]	7%	-19%[46.1 µM]	nt	0%	3%	nt	nt	20%[46.1 µM]
CCN(CC)c1nc2c(c(=O)n(C)c(=O)n2C)n1CCCc1ccccc1	-26%	nt	-20%	-4%	13%	nt	nt	nt
Cc1ccc(NC(=O)Cn2c(=O)n(CCCCC(=O)NCCc3ccc(Cl)cc3)c(=O)c3ccccc32)cc1	0%	7%[46.1 µM]	nt	nt	nt	-2.7%	-3%	-23%[46.1 µM]
NC(=O)C(CCCCN1CCCCC1)(c1ccccc1)c1ccccc1	-10%	11%	nt	nt	1%	nt	nt	-4%
CCC(CC)NC(=O)COC(=O)c1ccc(OCC(=O)Nc2ccccc2OC)c(OC)c1	21%	8%	7%	8%	-30%	-0.7%	-4%	7%
O=C(NC(=O)c1ccccc1)OCC1CCCN2CCCCC12 (stereo not drawn)	-10%	nt	6%	-5%	-9%	2.5%	4%	nt
Cc1cc2ccccc2nc1-c1ccccc1F	1%	10%	nt	nt	-19%	nt	nt	?
CCCNc1nc(NCC)nc(OC)n1	-25%	11%	6%	7%	7%	3.9%	2%	13%
COc1ccc(NC(=O)c2nc[nH]c2C(=O)Nc2ccccc2C)cc1	-19%	?	-1%	15%	-2%	2.4%	-13%	?
Cc1nc(NCc2ccccc2)sc1C(=O)Nc1ccccc1	30%	-10%	nt	0%	5%	nt	nt	19%[46.1 µM]
CN(C)CC1(c2ccccc2)CCCC1	17%	3%	-8%	-5%	16%	2.3%	-1%	1%
The list goes on.
SMILES	StopGo reporter	LASV entry inh	NS1 inh	SARS PLpro yeast	RE007 growth inh	Cruzain Triton	Cruzain noTriton	MARV entry inh
COCCn1c(=NC(=O)CCS(=O)(=O)c2ccccc2)sc2cc(C(=O)OC)ccc21	-4%	nt	13%	-1%	17%	nt	nt	nt
COCCNc1nc2nonc2nc1N1C[C@H]2CC[C@H]1C2	-6%	-5%	0%	0%	26%	nt	nt	8%[46.1 µM]
COc1cccc(NC(=O)CSc2nnc(CN3CCOCC3)n2C)c1	-2%	17%	5%	0%	6%	-0.4%	3%	-8%[46.1 µM]
O=C(NCCCN1CCCC1=O)c1csc2ccccc12	61%[activator]	5%	1%	3%	-2%	-1.3%	-6%	5%
COc1ccc(C(C(=O)NC(C)(C)C)N(Cc2cccs2)C(=O)CCC(=O)Nc2cc(C)on2)cc1 (stereo not drawn)	1%	-26%	-4%	12%	15%	-5.3%	26%	?
COc1ccnc(-n2cccc2/C=N/O)c1C#N	-4%	-2%	-3%	-1%	6%	nt	nt	-8%[46.1 µM]
CC(=O)c1cccc(NC(=S)NC(=O)CC(C)C)c1	54%[activator]	-27%	1%	-1%	12%	0.3%	5%	23%
CC1CCN(S(=O)(=O)c2ccc(N/N=C(/C#N)C(N)=O)cc2)CC1	28%	-17%	2%	-1%	-14%	-11%	2%	-7%
CC1Cc2ccccc2N1Cc1cc(=O)n2ccsc2n1 (stereo not drawn)	3%	-10%	13%	-13%	-4%	-1.8%	?	0%
Cc1c(CC(=O)N2CCN(C(=O)C3COc4ccccc4O3)CC2)c(=O)oc2c(O)c(O)ccc12 (stereo not drawn)	-24%	?	7%	4%	-2%	nt	nt	?
COc1cc(C(=O)NCCc2c[nH]c3ccccc23)ccc1OCc1c(C)noc1C	?	7.9µM*	-3%	-1%	-21%	nt	nt	-26%[46.1 µM]
CCOC(=O)N1CCN(c2nc3ccccc3nc2C(C#N)C(=O)NCCc2ccccc2)CC1 (stereo not drawn)	-44%	2%	-44%	1%	10%	2.5%	-8%	7%
